StopGo FLuc – Primary qHTS Assay for Foot and Mouth Disease Virus Antivirals against NCGC Sytravon and CBC Compound Libraries: Firefly Luciferase Signal; HEK cells with a luciferase reporter of 2A StopGo recoding; Potency, µM (doses to about 57.5 µM), for inactives: top-dose signal change, negative = less light; 0.23% of 120,000 active; AID 1745856, 2022; active = well fitted falling curve with a large enough effect; inconclusive = small, poorly fitted or top-dose-only effect; inactive = no such curve, though single readings can be large or run the other way; note: nearly all actives have a fitted effect of over 60% in size; overnight with compound
StopGo RLuc – Primary qHTS Assay for Foot and Mouth Disease Virus Antivirals against NCGC Sytravon and CBC Compound Libraries: Renilla Luciferase Signal; AID 1745857, 2022; 0.32% of 120,000 active; HEK cells with a luciferase reporter of 2A StopGo recoding; Potency, µM (highest dose often 57.5 µM), without a hit: top-dose signal change, negative = less light; active means well fitted falling curve with a large enough effect; inconclusive means small, poorly fitted or top-dose-only effect; inactive means no such curve, though single readings can be large or run the other way; note: nearly all actives have a fitted effect of over 55% in size; overnight with compound
* = called active by the depositor; ? = inconclusive; & = joins results of further samples; [ ] = remark or other dose. % is set by controls: 0 for no effect and ±100 for the full control effect; potency is the fitted concentration of half-maximal effect. A portion of the library; the hit share may differ from the screen's.

molecule	StopGo FLuc	StopGo RLuc
CCOc1ccccc1CNC(=O)c1cc2n(n1)CCCN(Cc1ccc(C)cc1)C2=O	-14%	81%[activator]
O=C(CN1C(=O)CCSc2ccccc21)Nc1ccccc1F	-2%	11%
COc1ccc(-c2nc3ccccc3o2)cc1NC(=O)c1ccc(OCC(C)C)cc1	13%	-2%
COc1cccc(N2CCN(S(=O)(=O)c3cc(-c4cc(C)no4)ccc3C)CC2)c1	-9%	3%
Cc1cc2c(c(=O)n1CCN(C)C)C(c1ccc(Cl)cc1Cl)C(C#N)=C(N)O2 (stereo not given)	-20%	-8%
CCCCCCC/C=N/NC(N)=S	12%	20%
COc1cc(CNn2cnnc2)ccc1OCc1ccccc1F	98%[activator]	-4%
O=C(NNS(=O)(=O)c1ccccc1[N+](=O)[O-])c1cccs1	0%	44%[activator]
Cc1ccc(NC(=O)c2ccc(F)cc2Cl)nc1	120%[activator]	7%
O=C(c1ccco1)N1CCC(C(=O)N2CCN(C(=O)C3CC3)CC2)CC1	-4%	-2%
Cc1ccc(-c2cc(C(F)(F)F)n3nc(C(=O)Nc4ccc(Cl)c(C(F)(F)F)c4)cc3n2)cc1	-16%	-12%
CCOc1ccc(CNC(=O)CS(=O)(=O)Cc2nc(-c3ccccc3C)oc2C)cc1	?	-2%
O=C(Nc1ccccc1)Nc1cccc(-c2nnc(Cc3ccc4c(c3)OCO4)o2)c1	57%[activator]	37%[activator]
Cc1nc2ccccc2c(C)c1CC(=O)NCc1ccco1	0%	24%
COc1ccc(C2C(C#N)=C(SCC(=O)Nc3cccc(F)c3)NC3=C2C(=O)CC(C)(C)C3)cc1 (stereo not given)	20%	0%
COc1ccc(-c2noc(-c3cccn(CC(=O)Nc4cc(C)cc(C)c4)c3=O)n2)cc1OC	36%[activator]	-8%
CCn1c(SCc2ccccc2Cl)nc(=O)c2c(C(=O)OC)cc(C3CC3)nc21	?	74%[activator]
CCN(CC)C(=O)c1ccc(NC(=O)Cn2nc(-c3ccc(C)cc3)c3ccccc3c2=O)cc1	-5%	-4%
CC(C(=O)c1ccc(Cl)cc1)C1(O)C(=O)Nc2ccccc21 (stereo not given)	-3%	-1%
CCc1ccc2oc(C(=O)NCC(c3ccc(C)o3)N3CCC(C)CC3)cc(=O)c2c1 (stereo not given)	-16%	-18%
Cc1ccc2cccc(NC(=O)COc3ccccc3Cl)c2n1	-6%	-10%
CC(C)(C)c1nc2cc(NC(=O)c3ccc[nH]c3=O)ccc2o1	?	11%
Cc1nn(C)c(C)c1NC(=O)c1c(Br)cnn1C	-1%	-6%
CC1CCc2noc(NC(=O)COc3ccc(C(C)(C)C)cc3)c2C1 (stereo not given)	0%	-10%
Cc1ccc(Cl)cc1N1CCN(C(=O)CCCn2c(=O)[nH]c3ccc(Br)cc3c2=O)CC1	-11%	-12%
CC(C)Cc1nc(NCCN2CCOCC2)c(C#N)c2c1CCCC2	-27%	-20%
CCOCCn1c(=O)c2c(nc(-n3nc(C)cc3C)n2CC)n(C)c1=O	-7%	-6%
O=C(NC1CCCCC1)c1cnn2c(C(F)(F)F)cc(-c3ccco3)nc12	47%[activator]	53%[activator]
Cc1[nH]c2c(Cl)cccc2c1C	-2%	-5%
CCCCC(=O)OC1=C(C(=O)c2ccccc2)N(C)S(=O)(=O)c2ccccc21	-14%	9%
Cc1cccc(C(=O)Nc2ccc3nc(SCC(=O)N4CCCC4)sc3c2)c1	?	?
Nc1c(C(=O)CSc2ccc3ccccc3n2)c(=O)[nH]c(=O)n1C1CC1	69%[activator]	46%[activator]
CCN(C(=O)CSc1cc(C)c2ccccc2n1)C1CCS(=O)(=O)C1 (stereo not given)	3%	-6%
CCn1nc(C(=O)OCCOc2ccc(OC)cc2)c2ccccc2c1=O	9%	6%
CCOc1ccc(C(=O)N(Cc2sccc2C)C2CCS(=O)(=O)C2)cc1 (stereo not given)	55%[activator]	34%[activator]
CCCCOc1ccc(C(=O)Nc2cc(-c3ccc(C)cc3)no2)cc1	-13%	-10%
Cc1cc(N2C(=O)C(O)=C(C(=O)c3cc4ccccc4o3)C2c2ccc(OC(C)C)cc2)no1 (stereo not given)	65%[activator]	5%
CCOc1ccccc1NC(=O)CSc1ccc2nc(-c3ccccc3)cn2n1	27%	-2%
Cc1cccc(CNC(=O)CSc2nc3nc[nH]c3c(=O)[nH]2)c1	-5%	-10%
Cc1ccc2oc(C(=O)Nc3ccccc3Cl)cc(=O)c2c1	229%[activator]	19%
Cc1ccc(-n2ncc3c(NCCC4=CCCCC4)ncnc32)cc1C	25%	-9%
Cc1ccc(/C=N/Nc2ccc(S(=O)(=O)Nc3ccccc3C(=O)O)cc2[N+](=O)[O-])o1	53%[activator]	45%[activator]
CC(C)COC(=O)/C(C#N)=C\c1c[nH]c2ccccc12	222%[activator]	18%
CCCS(=O)(=O)c1nc(S(=O)(=O)c2ccc(C)cc2)c(NCCCOC(C)C)s1	35%[activator]	159%[activator]
CCOc1ccc(CCNC(=O)c2cc(C)nc3c2c(C)nn3-c2cccc(F)c2)cc1	-2%	-5%
CSc1cccc(NC(=O)CN2C(=O)COc3ccc(Cl)cc32)c1	-3%	-13%
O=C(CSc1cnc2ccccc2n1)Nc1ccc2c(c1)OCCCO2	56%[activator]	-14%
O=C(c1c(F)cccc1F)N1CCC(CN2CCOCC2)CC1	-3%	-13%
COc1ccccc1C(CNC(=O)c1cccc2c(=O)c(C)c(-c3ccccc3)oc12)N(C)C (stereo not given)	-20%	-3%
COCCn1c(SCc2ccc(OC)c(F)c2)nnc1-c1cccc(C)c1	8%	48%[activator]

(further entries)
molecule	StopGo FLuc	StopGo RLuc
CSc1ccc(C)c(C(=O)NCC2CC2)c1	12%	-9%
COc1ccc(S(=O)(=O)NCC(c2ccco2)S(=O)(=O)c2cccs2)cc1F (stereo not given)	-8%	141%[activator]
Cc1cccc(-n2c(-c3ccco3)nc3c(cnn3-c3ccc(F)cc3)c2=O)c1	-3%	-24%
CCCS(=O)(=O)c1c(S(=O)(=O)CCC)c2cc(CC)ccn2c1C(=O)c1ccc(Cl)cc1	15%	4%
CCCN(CCC)S(=O)(=O)c1ccc(C(=O)Nc2cccc(-c3nc4ccccc4[nH]3)c2)cc1	-9%	-4%
CO[C@@H]1[C@@H](O[C@@H]2O[C@H](C)[C@@H](O[C@H]3C[C@@](C)(O)[C@@H](O)[C@H](C)O3)[C@H](N(C)C)[C@H]2O)[C@@H](CC=O)C[C@@H](C)[C@@H](O[C@@H]2CC[C@H](N(C)C)[C@@H](C)O2)/C=C/C=C/C[C@@H](C)OC(=O)C[C@H]1OC(C)=O	-20%[11.5 µM]	-8%
COc1cccc(C2CC(=O)N(c3ccccc3)C3=C2C(=O)OC3)c1OC (stereo not given)	-15%	-12%
Cc1ccccc1Nc1c(-c2ccsc2)nc2c(C)cccn12	-11%	6%
Cc1ccc(NS(=O)(=O)c2cccc(Cl)c2Cl)cc1S(=O)(=O)N1CCCCC1	?	15%
Cc1ccc(-n2nc3c(N4CCC(C(=O)N(C)Cc5ccccc5)CC4)nnc(C)c3c2C)cc1	-5%	6%
O=C(COC(=O)C(O)(c1ccccc1)c1ccccc1)c1c[nH]c2ccccc12	79%[activator]	37%[activator]
Cc1[nH]c2ccc(F)cc2c1CCNC(=S)NC(C)(C)C	-16%	40%[activator]
CCOc1ccc(CC(=O)NCCc2csc(-c3ccc(C)cc3)n2)cc1	-15%	0%
CCCOc1ccc(C(=O)Nc2c(NC3CCCC3)c3ccccc3oc2=O)cc1	-7%	-11%
CC(Sc1nnc(-c2cccs2)n1C1CC1)C(=O)NC(C)(C)C (stereo not given)	14%	-8%
CCN(C(=O)/C=C/c1cccs1)C1CCCCC1	0%	11%
COc1cc(OC)c(NC(=O)CCNS(=O)(=O)c2ccc3c(c2)oc(=O)n3C)cc1Cl	-12%	0%
CCCCCCOc1ccc(CNc2cccc3ccccc23)cc1	13%	2%
O=c1cc(-c2ccccc2F)oc2ccc(Br)cc12	177%[activator]	264%[activator]
Clc1ccc(N2CCN(c3ncnc4nc[nH]c34)CC2)cc1Cl	9%	22%
O=C1CC2(C(=O)Nc3c(Cl)cccc32)c2sc(C(=O)O)c(-c3ccccc3)c2N1 (stereo not given)	-1%	-11%
CC(C)(C)NC(=O)COC(=O)C(c1ccccc1)c1ccccc1	-5%	6%
N#Cc1ccccc1OCC(=O)NC12CC3CC(CC(C3)C1)C2	?	?
COc1ccc(C2C(=O)N(C3CCC(C)CC3)CC(=O)N2CCc2ccccc2)cc1OC (stereo not given)	-14%	-2%
CC(=O)C1=CCN(C)CC1	19%	15%

Compounds from the list above that contain a nitro group on carbon:
molecule	StopGo FLuc	StopGo RLuc
O=C(NNS(=O)(=O)c1ccccc1[N+](=O)[O-])c1cccs1	0%	44%[activator]
Cc1ccc(/C=N/Nc2ccc(S(=O)(=O)Nc3ccccc3C(=O)O)cc2[N+](=O)[O-])o1	53%[activator]	45%[activator]

Other entries.
molecule	StopGo FLuc	StopGo RLuc
CC1(C)Cc2c(c(N3CCOCC3)nc3sc(C(=O)Nc4cccc5ccccc45)c(N)c23)CO1	1%	0%
CC(C)NC(=O)c1ccc(Cl)c(Cl)c1	12%	11%
O=C(CC1CC2CCC1C2)NCC12CC3CC(CC(C3)C1)C2 (stereo not given)	7%	11%
CC(C)COc1ccc(CN)cc1	24%	8%
COCCNC(=O)NC(=O)CN(C)CCCc1ccccc1	-20%	-8%
CCc1ccccc1NC(=O)c1cc(S(=O)(=O)N2CCc3ccccc32)ccc1F	-11%	-1%
CC1CCN(S(=O)(=O)c2cc(C(=O)Nc3ccc(Br)cc3F)n(C)c2)CC1	0%	43%[activator]
O=C(Nc1ccc2oc(-c3ccccc3)nc2c1)c1ccc(Cl)cc1	6%	4%
COCCNC(=O)CS(=O)Cc1nc(-c2ccc(Cl)cc2)oc1C (stereo not given)	5%	3%
COc1cccc(-c2nc3c(C#N)c[nH]n3c2NC2CCCCC2)c1	0%	41%[activator]
COc1cccc(CN2CCc3nc(Nc4ccc5c(c4)OCCO5)ncc3C2)c1	71%[activator]	-11%
Cn1c(-c2ccc(Cl)cc2)cc2ccccc21	146%[activator]	11%
COc1ccc2cc(CNC(=O)c3ccc4c(c3)NC(=O)CCS4)ccc2c1	20%	5%
CCC(C)NC(=O)CSc1cc(C)c2cc(C)cc(C)c2n1 (stereo not given)	-6%	-6%
Cc1ccc(-c2n[nH]c(=O)c3ccccc23)cc1S(=O)(=O)N1CCC(C)CC1	31%[activator]	22%
COc1ccc(CCNC(=O)CCn2c(=O)c3ccccc3n(Cc3ccccc3)c2=O)cc1OC	-12%	-10%
CSc1ncc(C(=O)NCc2ccccc2)c(N)n1	90%[activator]	62%[activator]
CCCN(c1ccc(C(C)C)cc1)S(=O)(=O)c1ccc2c(c1)oc(=O)n2CC(=O)OCC	-18%	26%
COc1cc(-c2nnc3n2C(C)(C)Cc2ccccc2-3)cc(OC)c1OC	9%	26%
Cc1nc2cc(F)cc(C(=O)NCC(C)N(C)c3ccccc3)c2nc1C (stereo not given)	-5%	-11%
Clc1ccc(-c2csc3ncnc(Sc4nnc(C5CC5)o4)c23)cc1	25µM*	20µM*
O=S(=O)(CCSc1nnnn1C1CCCC1)c1cc(Cl)ccc1Cl	-15%	5%
N#Cc1ccccc1COC(=O)COc1ccc2c(c1)CCC2	-3%	0%
Cc1ccccc1Cn1cnc(NC(=O)c2ccn(COc3ccc(F)cc3F)n2)n1	-13%	-14%
CC(C)COC(=O)c1ccc(NC(=O)C2=C(c3ccccc3)S(=O)(=O)CCO2)cc1	-1%	-34%
CC(=O)c1cccc(NC(=O)c2cccc3ncccc23)c1	35%[activator]	8%
COC(=O)c1ccc(/C=N/OCc2ccc(C#N)cc2)cc1	3%	7%
CCCCNC(=O)c1ccc(NC(=O)c2ccccc2C)cc1	27%	-2%
CCN(c1ccccc1)S(=O)(=O)c1ccc(NC(=O)c2cc(=O)c3ccccc3o2)cc1	-1%&-20%	-1%&-10%
CCN(CC)S(=O)(=O)c1ccc2c(c1)N(CC(=O)NCCCN1CCN(c3cc(C)ccc3C)CC1)C(=O)CO2	?	?
CN(C)/C=C\C(=O)c1cccc([N+](=O)[O-])c1	14%	4%
CCN1CCN(CC2CCCN2)CC1 (stereo not given)	0%	23%
C#CCn1c(O)c(/C=C2/C=Nc3ccccc32)sc1=O	167%[activator]	-1%
Nc1ccc2c(c1)CCC(=O)N2	19%	-5%
O=C(Cn1c(=O)nc2n1C(=O)N(c1ccccc1)C2)NCc1ccccc1	3%	-5%
Cc1c(C(=O)N2CCOCC2)cnn1-c1ccccc1F	-2%	-15%

Compound profiles, from the list above. Screens in order: StopGo FLuc	StopGo RLuc
CCN1CCN(CC2CCCN2)CC1 (stereo not given) reads 0%	23%
CCCCNC(=O)c1ccc(NC(=O)c2ccccc2C)cc1 reads 27%	-2%
Cc1c(C(=O)N2CCOCC2)cnn1-c1ccccc1F reads -2%	-15%

Compound activity as filed in PubChem BioAssay.
